# p53 HeLa: nuclear p53 accumulation, HPV+ cells – imaging, p53-positive nuclei imaging, 24 h, 48 h (AID 1508601); p53-positive nuclei imaging, 48 h; stronger effect = higher value; some inactives read as strong as hits; p53-positive nuclei, normalised, % at 11 µM unless noted; 5,700 tested, 1% active;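 active = mean of two plates above 50% at 24 h or at 48 h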;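 also: HPV-positive HeLa cells with a fluorescent p53 stability reporter; 0% = vehicle and 100% = proteasome inhibitor control; doses worked out from stocks diluted about 900-fold with the highest of each compound shown; many of its hits are not listed in these tables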
# p53 HeLa cells 24 h: also measured in p53 HeLa; calls as there; nuclei count, normalised, %; measured here: cell number at 24 h;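 100% = vehicle wells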
# p53 HeLa p53 24 h: further read-out of p53 HeLa, marked with its call; p53-positive nuclei, normalised, %; measured here: p53 positive nuclei at 24 h;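 0% = vehicle and 100% = positive control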
# p53 HeLa cells 48 h: further read-out of p53 HeLa, marked with its call; nuclei count, normalised, %; measured here: cell number at 48 h;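 100% = vehicle wells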
# * hit, by the source's call; [ ] = dose if it differs, or a comment.
# Labels used below – A = p53 HeLa; B = p53 HeLa cells 24 h; C = p53 HeLa p53 24 h; D = p53 HeLa cells 48 h
CC(C)CC(=O)NC(C(=O)NC(C(=O)NC(CC(C)C)C(O)CC(=O)NC(C)C(=O)NC(CC(C)C)C(O)CC(=O)O)C(C)C)C(C)C (stereo unspecified)
  A = 0.0	B = 108.3	C = 0.0	D = 113.9
Oc1cccc(-c2nc(N3CCOCC3)c3oc4ncccc4c3n2)c1
  A = -0.2	B = 71.0	C = 0.2	D = 59.7
O=C1NC(=O)C(c2ccccc2[N+](=O)[O-])=C1Nc1ccc(O)c(Cl)c1
  A = -0.1[3.7 µM]	B = 113.1	C = -0.2	D = 111.5
CCOc1cc(N2CCC(O)CC2)ccc1Nc1ncc2c(n1)N(C)c1ccccc1C(=O)N2C
  A = -0.2	B = 68.1	C = 0.0	D = 66.3
CN1C(=O)C(Cc2c[nH]c3ccccc23)NC1=S (stereo unspecified)
  A = 0.0	B = 109.6	C = -0.1	D = 113.1
CN(C)Cc1ccc(-c2nc3cccc4c3n2CCNC4=O)cc1
  A = 0.0[3.7 µM]	B = 110.0	C = -0.2	D = 116.3
CN(C)CCN(Cc1ccccc1)c1ccccn1
  A = 0.1[3.7 µM]	B = 81.8	C = -0.3	D = 70.0
O=C1c2cccc(O)c2C(=O)c2c(O)cc(CO)cc21
  A = 0.0[3.7 µM]	B = 105.5	C = 0.0	D = 99.5
Cc1cccc(-c2[nH]c(C(C)(C)C)nc2-c2ccc3nccnc3c2)n1
  A = 0.2	B = 94.8	C = 0.2	D = 87.6
O=c1c(O)c(-c2cc(O)c(O)c(O)c2)oc2cc(O)cc(O)c12
  A = 0.0[3.7 µM]	B = 113.0	C = -0.3	D = 106.6

# A second format for part of the listing above.
Compound	p53 HeLa	p53 HeLa cells 24 h	p53 HeLa p53 24 h	p53 HeLa cells 48 h
CC(C)CC(=O)NC(C(=O)NC(C(=O)NC(CC(C)C)C(O)CC(=O)NC(C)C(=O)NC(CC(C)C)C(O)CC(=O)O)C(C)C)C(C)C (stereo unspecified)	0.0	108.3	0.0	113.9
Oc1cccc(-c2nc(N3CCOCC3)c3oc4ncccc4c3n2)c1	-0.2	71.0	0.2	59.7
O=C1NC(=O)C(c2ccccc2[N+](=O)[O-])=C1Nc1ccc(O)c(Cl)c1	-0.1[3.7 µM]	113.1	-0.2	111.5

# (next part)
# Labels used below – A = p53 HeLa; B = p53 HeLa cells 24 h; C = p53 HeLa p53 24 h; D = p53 HeLa cells 48 h
c1cc(-c2cnn3cc(-c4ccc(OCCN5CCCCC5)cc4)cnc23)ccn1
  A = 32.1	B = 35.9	C = 17.3	D = 26.8
Cc1ccc(C2OC(CO)C(O)C(O)C2O)cc1Cc1ccc(-c2ccc(F)cc2)s1 (stereo unspecified)
  A = -0.2	B = 97.4	C = -0.2	D = 99.5
Nc1nc(NCCc2ccc(O)cc2)nc2nc(-c3ccco3)nn12
  A = 0.0	B = 104.8	C = 0.0	D = 104.7
C=C1C(=CC=C2CCC[C@]3(C)C(C(C)CCCC(C)(C)O)CC[C@@H]23)CC(O)CC1O (stereo partly specified)
  A = 1.3[3.7 µM]	B = 111.8	C = 1.5	D = 110.2
COc1cc(OC)cc(-c2ccc3ncc4ccc(=O)n(-c5ccc(N6CCNCC6)c(C(F)(F)F)c5)c4c3c2)c1
  A = 10.5	B = 45.6	C = 11.7	D = 30.1
NC(=S)NN=Cc1ncccc1N
  A = 0.2[3.7 µM]	B = 59.1	C = -0.3	D = 50.7
Cc1[nH]c(C=C2C(=O)Nc3ccc(S(=O)(=O)Cc4c(Cl)cccc4Cl)cc32)c(C)c1C(=O)N1CCCC1CN1CCCC1 (stereo unspecified)
  A = 0.3	B = 66.0	C = 0.2	D = 61.4
CC1=C(C(=O)Nc2ccccc2C)C(c2cccc([N+](=O)[O-])c2)C2=C(CCCC2=O)N1 (stereo unspecified)
  A = -0.2	B = 100.6	C = 0.0	D = 100.5
Cn1cncc1[C@@](N)(c1ccc(Cl)cc1)c1ccc2c(c1)c(-c1cccc(Cl)c1)cc(=O)n2C
  A = 1.4	B = 76.6	C = 2.6	D = 65.4
C[C@@]12CCC3=C4CCC(=O)C=C4CC[C@H]3[C@@H]1CC[C@@]2(O)CC#N
  A = -0.7[3.7 µM]	B = 109.0	C = -0.3	D = 107.0

# Some entries already given, reduced to p53 HeLa, p53 HeLa p53 24 h and p53 HeLa cells 24 h.
Molecule	p53 HeLa	p53 HeLa p53 24 h	p53 HeLa cells 24 h
Cc1ccc(C2OC(CO)C(O)C(O)C2O)cc1Cc1ccc(-c2ccc(F)cc2)s1 (stereo unspecified)	-0.2	-0.2	97.4
Cc1[nH]c(C=C2C(=O)Nc3ccc(S(=O)(=O)Cc4c(Cl)cccc4Cl)cc32)c(C)c1C(=O)N1CCCC1CN1CCCC1 (stereo unspecified)	0.3	0.2	66.0
C[C@@]12CCC3=C4CCC(=O)C=C4CC[C@H]3[C@@H]1CC[C@@]2(O)CC#N	-0.7[3.7 µM]	-0.3	109.0
COc1cc(OC)cc(-c2ccc3ncc4ccc(=O)n(-c5ccc(N6CCNCC6)c(C(F)(F)F)c5)c4c3c2)c1	10.5	11.7	45.6

# (list continues)
# Labels used below – A = p53 HeLa; B = p53 HeLa cells 24 h; C = p53 HeLa p53 24 h; D = p53 HeLa cells 48 h
O=C(NN=Cc1ccc(O)c(O)c1)c1cc2ccccc2cc1O
  A = 0.1[3.7 µM]	B = 107.8	C = -0.2	D = 99.5
c1ccc2c(CCNc3ccc(Nc4ccncc4)cc3)c[nH]c2c1
  A = -0.5[3.7 µM]	B = 82.9	C = -0.3	D = 85.2
Cn1c(=O)c(F)c(Nc2ccc(I)cc2F)c2c(=O)n(CC(O)CO)cnc21 (stereo unspecified)
  A = -0.3[3.7 µM]	B = 105.0	C = -0.3	D = 99.1
C=CC(=O)N1CCCC(n2nc(-c3ccc(Oc4ccccc4)cc3)c3c(N)ncnc32)C1 (stereo unspecified)
  A = 0.0	B = 67.7	C = 0.1	D = 67.2
O=S(=O)(O)c1ccc2cc(N=Nc3cc(S(=O)(=O)O)c4cccnc4c3O)ccc2c1
  A = -0.3	B = 109.3	C = -0.2	D = 101.8
O=C(C(=O)c1ccc(Cl)cc1)c1ccc(Cl)cc1
  A = -0.3	B = 83.8	C = -0.1	D = 87.0
CCN(c1nc(N)c(C(=O)N=C(N)N)nc1Cl)C(C)C
  A = -0.2	B = 110.3	C = 0.0	D = 108.1
CCCCCCCCCCCCCC=CC(O)C(CO)N(C)C (stereo unspecified)
  A = 3.8	B = 35.8	C = 3.5	D = 22.2
CCOC(=O)c1c(C)n(C)c2ccc(O)cc12
  A = 0.0[3.7 µM]	B = 104.7	C = -0.3	D = 108.5
Nc1cc(C(Cl)=C(Cl)Cl)c(S(N)(=O)=O)cc1S(N)(=O)=O
  A = -0.2[3.7 µM]	B = 106.0	C = -0.4	D = 104.9
c1ccc(-c2ccc(C(c3ccccc3)n3ccnc3)cc2)cc1 (stereo unspecified)
  A = -0.2[3.7 µM]	B = 111.4	C = -0.5	D = 104.2
CNC(=O)C(c1ccccc1)N1CCc2cc(OC)c(OC)cc2C1CCc1ccc(C(F)(F)F)cc1 (stereo unspecified)
  A = -0.4[3.7 µM]	B = 107.2	C = -0.5	D = 103.6
O=C(Nc1cccc(Cl)c1)c1ccccn1
  A = -0.1[3.7 µM]	B = 95.1	C = -0.4	D = 93.3
CC(NC(=O)C(Cc1ccccc1)NC(=O)OCc1ccccc1)C(=O)CF (stereo unspecified)
  A = -0.1[3.7 µM]	B = 108.0	C = -0.1	D = 101.3
COc1ccc2c(c1)CN(C)CCS2
  A = 0.0	B = 89.2	C = 0.4	D = 95.1
NCCCNCCSP(=O)(O)O
  A = 0.0	B = 98.3	C = 0.0	D = 105.4
COC1C(N(C)C(=O)c2ccccc2)C[C@@H]2O[C@]1(C)n1c3ccccc3c3c4c(c5c6ccccc6n2c5c31)C(=O)NC4 (stereo partly specified)
  A = 1.6	B = 39.1	C = 0.5	D = 26.7
O=C(NCc1cccnc1)c1ccc(CNS(=O)(=O)c2ccc(F)cc2)cc1
  A = 0.3	B = 92.4	C = 0.1	D = 96.5
c1ccc2c(-c3cnn4cc(-c5ccc(N6CCNCC6)cc5)cnc34)ccnc2c1
  A = -0.4	B = 60.3	C = -0.1	D = 41.8
CC(COc1ccccc1)N(CCCl)Cc1ccccc1 (stereo unspecified)
  A = -0.2[3.7 µM]	B = 112.6	C = -0.2	D = 113.9
O=C(Oc1cc(S(=O)(=O)c2ccccc2)ccc1[N+](=O)[O-])c1ccc(Cl)cc1
  A = 0.0[3.7 µM]	B = 106.6	C = -0.3	D = 105.4
COc1ccc(N(C(=O)CCl)C(C(=O)NCCc2ccccc2)c2cccs2)cc1Cl (stereo unspecified)
  A = 0.3	B = 51.7	C = 0.0	D = 31.6
Cc1cc(C(C)(C)C)cc(C)c1CC1=NCCN1
  A = -0.2[3.7 µM]	B = 96.5	C = -0.3	D = 99.6
CCCCCCCCCCCCCCCC(=O)OCC(O)[C@H]1OC(=O)C(O)=C1O (stereo partly specified)
  A = -0.3[3.7 µM]	B = 100.0	C = -0.5	D = 96.6
N#CC1(c2ccc(NC(=O)c3cccnc3NCc3ccncc3)cc2)CCCC1
  A = -0.1[3.7 µM]	B = 108.1	C = -0.2	D = 102.8
COc1cc(N2CCC(N)CC2)ccc1Nc1ncc(Cl)c(-c2c[nH]c3ccccc23)n1
  A = -0.2[3.7 µM]	B = 104.1	C = -0.3	D = 98.3
COc1cc2c(cc1O)CC[C@H]1[C@H]3CCC(O)[C@@]3(C)CC[C@@H]21 (stereo partly specified)
  A = 8.3	B = 37.7	C = 3.1	D = 26.5
CC(=O)C1CC[C@H]2[C@@H]3CC=C4CC(O)CC[C@]4(C)[C@@H]3CC[C@]12C (stereo partly specified)
  A = 0.0[3.7 µM]	B = 111.7	C = -0.2	D = 104.5
CCc1cnc(N2CCC(c3nc(COc4ccc(-n5cnnn5)cc4)cs3)CC2)nc1
  A = -0.2	B = 107.8	C = 0.0	D = 109.2
Cc1cnc(-c2cnc(NCCNc3ccc(C#N)cn3)nc2-c2ccc(Cl)cc2Cl)[nH]1
  A = 6.4	B = 95.9	C = 1.3	D = 61.1
COc1ccc(-c2nc(N3CCOCC3)c3sc(CN(C)c4ncc(C(=O)NO)cn4)cc3n2)cn1
  A = 81.6*	B = 31.5*	C = 59.0*	D = 19.0*
Cn1cc(-c2cnn3c(N)c(Br)c(C4CCCNC4)nc23)cn1 (stereo unspecified)
  A = 2.0[3.7 µM]	B = 92.0	C = -0.1	D = 75.2
C=C1C(=O)OC2C=C(C)CCC=C(C)CCC12 (stereo unspecified)
  A = -0.3[3.7 µM]	B = 112.6	C = -0.5	D = 106.1
CN(C)CCC=C1c2ccccc2Sc2ccc(Cl)cc21
  A = -0.1[3.7 µM]	B = 113.1	C = -0.4	D = 108.9
CC(C)(C)c1cc(NC(=O)Nc2ccc(-c3cn4c(n3)sc3cc(OCCN5CCOCC5)ccc34)cc2)no1
  A = 7.1	B = 61.5	C = 16.3	D = 61.0
CCN(CC)CCCCNc1ncc2cc(-c3cc(OC)cc(OC)c3)c(NC(=O)NC(C)(C)C)nc2n1
  A = 0.0	B = 90.7	C = 0.2	D = 91.3
CC(=O)OCOC(=O)CN(CC(=O)OCOC(C)=O)c1ccccc1OCCOc1ccccc1N(CC(=O)OCOC(C)=O)CC(=O)OCOC(C)=O
  A = 0.1[3.7 µM]	B = 108.3	C = -0.2	D = 98.6
Cn1c([N+](=O)[O-])cnc1COC(N)=O
  A = -0.1[3.7 µM]	B = 116.3	C = -0.2	D = 105.6
OCc1cc(C(O)CNCCCCCCOCCCCc2ccccc2)ccc1O (stereo unspecified)
  A = 0.0	B = 96.1	C = 0.0	D = 104.9
Cc1cc(C)c(S(=O)(=O)n2cc(C)cc2C)c(C)c1
  A = 0.0	B = 116.3	C = -0.2	D = 110.7
CCCCCCCCCCCCCCCCOc1nc2ccc(C)cc2c(=O)o1
  A = 0.0	B = 114.5	C = -0.2	D = 105.9
C=CC(=O)Nc1cc(-n2c(=O)ccc3cnc4ccc(-c5ccc(NS(C)(=O)=O)cc5)cc4c32)ccc1C
  A = 0.1	B = 100.1	C = 0.0	D = 87.1
CNCc1ccc(-c2cc(-c3nc(-c4ccc(S(=O)(=O)C(C)C)cc4)cnc3N)on2)cc1
  A = 1.3	B = 42.9	C = 0.5	D = 19.1
O=c1c2ccccc2[nH]c(=S)n1CCN1CCC(=C(c2ccc(F)cc2)c2ccc(F)cc2)CC1
  A = -0.2	B = 115.4	C = -0.1	D = 113.5
O=C(O)c1cc2cccc([N+](=O)[O-])c2[nH]1
  A = 0.0[3.7 µM]	B = 102.9	C = -0.2	D = 101.5
Cc1cc(C2CCCCC2)n(O)c(=O)c1
  A = -0.3[3.7 µM]	B = 85.8	C = -0.2	D = 73.6
CCN(CC)Cc1ccc2cc(COC(=O)Nc3ccc(C(=O)NO)cc3)ccc2c1
  A = 95.7*[3.7 µM]	B = 39.9*	C = 67.1*	D = 22.6*
Cc1nnc(C(C)C)n1C1CC2CCC(C1)N2CCC(NC(=O)C1CCC(F)(F)CC1)c1ccccc1 (stereo unspecified)
  A = -0.1	B = 97.8	C = -0.2	D = 103.5
COc1cc(C(=O)c2c(C)oc3c(O)c(OC)ccc23)cc(OC)c1OC
  A = 2.4	B = 43.7	C = 1.3	D = 29.6

# Screens from PubChem.

# These rows are one share of the data; rates above refer to the full screens.
